Source: PubChem (National Center for Advancing Translational Sciences (NCATS))
GLA inh pH 4.5 = inhibitors of human alpha-galactosidase A at pH 4.5. activity change, negative = inhibition, % at 105 µM. AID 1467. purified enzyme, 4-MU-alpha-Gal fluorescence, pH 4.5. 230,000 tested, under 10 active. P06280; inconclusive = small, poorly fitted or top-dose-only inhibition, or a rising curve; inactive = flat fitted curve, though single readings scatter; no compound was filed as active;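 also: 0% = full activity with enzyme and -100% = basal without enzyme; dose as in the result columns while the protocol names 77 µM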
Rango dissoc inh = inhibitors of RanGTP-induced Rango-importin beta complex dissociation; O95149+P62826; Biochemical FRET Rango-importin beta, RanGTP-induced dissociation; Potency, µM (titrated, usually from 46.1 µM), for the others: at the top dose activity change, negative = inhibition; 0.071% of 340,000 active; active means falling FRET ratio curve, often poorly fitted, with flat reads before Ran was added; inconclusive means other falling curves, or compound fluorescence or quenching; inactive means flat or rising ratio curve;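 also: potency is read from the fitted curve at half-maximal effect; % of control where 0% means no effect; nearly all actives have a fitted effect of over 45% in size; -100% = wells without RanGTP and RCC1; the record marks most hits as doubtful in a second field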
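Compounds preincubate 5 min with complex of recombinant Rango and importin beta in PBS with 1 mM DTT. Ran (0.6 uM) loaded with 2 mM GTP plus 0.2 uM RCC1 starts dissociation; FRET is recorded 45 min later.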
miR-21 reporter = raises the signal of a miR-21 reporter; HeLa miR-21 FLuc reporter, luciferase, 48 h; Potency, µM (titrated, usually from 38.3 µM), for the others: at the top dose reporter change, positive = more light; 340,000 tested, under 10 active; active = well fitted rising curve with a large enough effect; inconclusive = small, poorly fitted or top-dose-only effect; inactive = no such curve, though single readings can be large or run the other way;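 also: % of control where 0% means no effect; miR-21 action dims this reporter so a rising signal means less miR-21 action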
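HeLa miR-21-FLuc reporter line, endogenous miR-21; 2000 cells/well in DMEM/10% FBS; compound titration up to ~40uM final, 48 h, 37 degree Celsius; luciferase detection reagent, 15 min lysis, CCD luminescence.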
Rango-impB inh = inhibitors of Rango-importin beta complex formation; 0.031% of 340,000 active; Rango CFP/YFP FRET sensor + importin beta, 45 min; Q14974; Potency, µM (series often up to 92.2 µM), for the others: at the highest dose inhibition of complex formation; active = rising FRET ratio curve, often small or poorly fitted; inconclusive = mostly compound fluorescence or quenching in the first reads; inactive = flat curves in all reads;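 also: potency is read from the fitted curve at half-maximal effect; 0% = DMSO wells and 100% = buffer wells lacking importin beta; nearly all actives have a fitted effect of over 15% in size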
Target sequence (Q14974 whole entry, looked up): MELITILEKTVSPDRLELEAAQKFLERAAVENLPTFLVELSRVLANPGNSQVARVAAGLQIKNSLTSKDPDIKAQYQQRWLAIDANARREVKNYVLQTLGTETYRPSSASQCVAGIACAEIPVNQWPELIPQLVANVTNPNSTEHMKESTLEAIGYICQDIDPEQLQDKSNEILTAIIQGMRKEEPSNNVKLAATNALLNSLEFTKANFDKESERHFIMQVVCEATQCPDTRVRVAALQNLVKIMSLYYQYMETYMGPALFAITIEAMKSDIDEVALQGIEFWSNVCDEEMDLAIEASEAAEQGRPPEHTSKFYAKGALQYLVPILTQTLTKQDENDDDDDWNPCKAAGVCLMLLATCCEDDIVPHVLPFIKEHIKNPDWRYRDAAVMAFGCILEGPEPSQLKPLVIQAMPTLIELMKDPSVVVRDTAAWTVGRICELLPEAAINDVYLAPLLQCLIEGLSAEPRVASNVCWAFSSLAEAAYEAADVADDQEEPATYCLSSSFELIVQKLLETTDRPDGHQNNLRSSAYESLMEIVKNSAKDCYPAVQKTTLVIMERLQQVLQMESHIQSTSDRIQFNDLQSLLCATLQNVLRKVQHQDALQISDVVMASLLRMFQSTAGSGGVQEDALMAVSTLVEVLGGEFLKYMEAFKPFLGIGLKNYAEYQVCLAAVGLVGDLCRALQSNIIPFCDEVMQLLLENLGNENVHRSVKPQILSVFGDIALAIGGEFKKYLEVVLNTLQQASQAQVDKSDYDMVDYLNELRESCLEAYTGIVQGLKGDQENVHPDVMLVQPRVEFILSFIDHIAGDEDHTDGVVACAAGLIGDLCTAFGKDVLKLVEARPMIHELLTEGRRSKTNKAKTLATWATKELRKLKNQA
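Inhibition scored from the CFP 486 nm/YFP 530 nm FRET ratio 45 min after adding 0.125 microM importin beta to 50 nM Rango biosensor preincubated 5 min with compound (room temperature, PBS with DTT, Tween-20, BSA). No-importin wells as positive control.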
* = called active by the depositor; ? = inconclusive; nt = no result given; & = joins results of further samples.

GLA inh pH 4.5 | Rango dissoc inh | miR-21 reporter | Rango-impB inh | Compound
-5 | -11% | -13% | 0.2% | CC1(C)OC(=O)C(=CNn2cnc3ccccc3c2=O)C(=O)O1
nt | -12% | 1% | -3.0% | CS(=O)(=O)c1ccc(NCCN2CCOCC2)c([N+](=O)[O-])c1
nt | 16% | -1% | -2.5% | COC(=O)[C@@H](Cc1ccccc1)NC(=O)NCCc1ccc(OC)c(OC)c1
nt | -14% | -5% | -0.6% | CC(=O)c1ccc(Nc2cc(C)nc3ncnn23)cc1
nt | -4% | -2% | 2.0% | O=C(c1ccncc1)N1CCN(S(=O)(=O)c2ccc3ccccc3c2)CC1
nt | ? | nt | ? | Cc1ccc(S(=O)(=O)N2CCN(C(=O)CSc3ccccn3)CC2)c(C)c1
5 | -17% | -3% | -7.5% | CCc1cccc(CC)c1NC(=O)Cn1c(-c2ccc(F)cc2)noc1=O
-8 | -5% | -29% | -1.1% | C/C(=N\NC(=O)c1nonc1N)c1cccs1
nt | 20% | nt | -0.3% | CN(C)c1cccc(C(=O)NNC(=O)C23CC4CC(CC(C4)C2)C3)c1
nt | 5% | -1% | 0.6% | O=C(NCc1cccs1)C1CC(O)CN1C(=O)Nc1ccccc1 (stereo unspecified)
nt | 8% | -33% | 2.6% | Cc1cc(C)n(CC(=O)NC2CCCc3c2cnn3-c2ccc(C)c(C)c2)n1 (stereo unspecified)
nt | 0% | 26% | 3.9% | CC(C)COc1cccc(C(=O)Nc2ccc(CN3CCOCC3)cc2)c1
-6 | 3% | -2% | -0.5% | COc1cc(C)c(N)cc1C(C)C
-15 | 1% | -43% | -1.1% | CCOc1ccc(/C=N/Nc2ccccn2)cc1
8 | 3% | -5% | 2.6% | Cc1ccnc(NC(=O)CCc2c(C)nc3ncnn3c2C)c1
-12 | 9% | -6% | ? | COc1cc(S(=O)(=O)NC2CCCC2)ccc1Cl
0 | -7% | 1% | 2.0% | CC1(C)CC(=O)C(CC(=O)N2CCC(Cc3ccccc3)CC2)C(=O)C1
5 | -5% | -3% | -0.8% | Cc1ccc(CN2CCN(Cc3cccc4c3OCO4)CC2CCO)cc1 (stereo unspecified)
-2 | -15% | -40% | -0.4% | C/C(=N\NC(=O)c1nn(C)cc1Br)c1ccncc1
1 | 0% | -2% | 2.3% | Cc1cccc(OCc2nnc(SCC(=O)Nc3sc(C)c(C)c3C#N)n2C)c1
-10 | 0% | -9% | 0.3% | COc1ccc(CN(C(=O)c2oc3ccccc3c2C)C2CCS(=O)(=O)C2)cc1 (stereo unspecified)
nt | -5% | -5% | 1.0% | Cc1ccc(C)c(OCCC(=O)NCCc2ccc(Cl)cc2)c1
nt | ? | -6% | ? | CCCN1CCc2c(sc(NC(=O)Cc3ccc(F)cc3)c2C(N)=O)C1
nt | 6% | 16% | -0.4% | Cc1nc(C)c(-c2ccc(SCC(=O)Nc3cccc(Cl)c3)nn2)s1
9 | 4% | -27% | 1.1% | CCCCCCSc1nsc(NC(=O)CCC)n1
-3 | ? | 26% | ? | O=C(NCCCN1CCOCC1)C(=O)N/N=C/c1c2ccccc2cc2ccccc12
-4 | -6% | -1% | 5.2% | COc1cc(/C=C2\SC(=S)N(Nc3ccccc3)C2=O)cc(OC)c1OC
nt | -3% | nt | 4.1% | O=C(OCCSCCOC(=O)C1CC=CCC1)C1CC=CCC1 (stereo unspecified)
-8 | 1% | -8% | -0.6% | Fc1ccc(Cn2nnnc2CN2CCc3ccccc3C2)cc1
nt | 19% | nt | -1.9% | C[C@H](CO)N1C[C@H](C)[C@@H](CN(C)C(=O)NC2CCCCC2)Oc2c(NC(=O)Nc3ccccc3)cccc2C1=O
-9 | -5% | -10% | 0.5% | COC(=O)C1=C(C)NC(=O)/C1=C\c1cc(C)n(-c2ccccc2C)c1C
-14 | -2% | -14% | 11% | COc1cc(NC(=O)c2ccc(C)cc2)c(OC)cc1NC(=O)CN1CCCCC1
nt | -2% | -1% | 3.3% | COc1ccc(N2CC(C(=O)OCC(=O)Nc3ccccc3C)CC2=O)cc1 (stereo unspecified)
8 | ? | -2% | ? | COCCNS(=O)(=O)c1ccc2c3c(cccc13)C(=O)N2C
-15 | ? | -11% | ? | CC1=CC2=NC(=O)/C(=C\c3cccn3CCOc3cc(C)cc(C)c3)C(=N)N2O1
nt | 12% | nt | 6.4% | NC(=O)CC(NC(=O)Cc1ccc(Br)cc1)c1ccc(NC2CCCCCCC2)c([N+](=O)[O-])c1 (stereo unspecified)
nt | -9% | 4% | -0.9% | Cc1cc2oc(=O)cc(CN3CCN(Cc4ccccc4)CC3)c2cc1C
nt | -9% | 18% | 0.6% | COc1ccc(CN(C)c2ncnc3sccc23)c(OC)c1OC
1 | 12% | -5% | 2.3% | Cc1c(N=C2C(=O)Nc3ccccc32)c(=O)n(-c2ccccc2)n1C
nt | 6% | -58% | 1.7% | Cn1cc(Cl)c(/C(N)=N/OC(=O)c2ccccc2C(F)(F)F)n1
7 | -19% | 19% | -2.7% | CCOC(=O)c1[nH]c2ccc(OC)cc2c1NC(=S)N1CCN(c2ccccc2OC)CC1
-3 | nt | -2% | nt | CCOC(=O)c1cnn(-c2nc(C)nc3sc4c(c23)CCC4)c1N
2 | -8% | -41% | -3.6% | Cc1nn(-c2ccccc2)c(=S)c2ccccc12
nt | 6% | -3% | -5.4% | Cc1cccc(CC(=O)NCCN2CCOCC2)c1
6 | -3% | -7% | -6.4% | COc1ccc(NC(=O)CSc2nnc(C3CCCCC3)o2)c(OC)c1
5 | 3% | -2% | 0.9% | CC(C)(O)P(C)(=O)c1ccccc1 (stereo unspecified)
nt | -15% | 0% | 0.9% | COC(=O)CC1C(=O)NCCN1C(=O)c1cc(OC)c(OC)cc1OC (stereo unspecified)
nt | 4% | nt | 0.1% | Cc1cc(F)ccc1S(=O)(=O)Nc1ccccc1C(=O)N1CCCC1
-3 | -15% | -64% | -1.0% | N/C(Cc1cccs1)=N\OC(=O)COc1ccccc1Cl
-1 | -4% | 4% | 0.2% | CC(OC(=O)c1cccn1C)C(=O)Nc1ccc2c(c1)OCO2 (stereo unspecified)

(continued)
GLA inh pH 4.5 | Rango dissoc inh | miR-21 reporter | Rango-impB inh | Compound
3 | 1% | -5% | 2.7% | Cc1ccc(-c2nc(CS(=O)CC(=O)NCCN(CC(C)C)CC(C)C)c(C)o2)cc1 (stereo unspecified)
2 | -2% | -4% | -0.8% | Cc1cc(C)n(-c2nc(N(c3ccccc3)c3ccccc3)nc(-n3nc(C)cc3C)n2)n1
0 | -10% | 1% | -0.1% | O=C(O)CCNS(=O)(=O)c1ccccc1Br
nt | -1% | -2% | -2.8% | CC(OCC(O)CN1CCCCC1CCO)c1ccc(Cl)cc1 (stereo unspecified)
8 | 26% | -7% | 0.2% | Cn1c(Cn2c(=O)sc3ccccc32)nnc1SCc1ccc(F)cc1
nt | -6% | -7% | 1.1% | CCOc1ccccc1N(CC(=O)N1CCc2ccccc2C1)S(C)(=O)=O
nt | 6% | -1% | -0.8% | CC(C)c1ccc(NC(=O)Cn2ncn3c(cc4ccccc43)c2=O)cc1
-3 | -9% | 4% | -0.1% | O=S(=O)(c1ccc2ccccc2c1)N1CCN=C1SCc1cccnc1
6 | -19% | 1% | 0.1% | O=C1C2C3C=CC(C3)C2C(=O)N1CCN1CCN(Cc2ccc([N+](=O)[O-])cc2)CC1 (stereo unspecified)
nt | 8% | nt | -2.1% | CC1([N+](=O)[O-])COC2(CCCCC2)OC1
nt | -16% | nt | -1.9% | OCC[C@H]1C[C@@H](O)[C@H](O)[C@]2(CCCc3ccccc3O2)O1
3 | -4% | -5% | -2.7% | CCOC(=O)c1[nH]c(C)c(C(=O)NC)c1C
-4 | 10%&3% | -4% | -0.2%&-0.5% | CC1=CC(C)(C)NC(=S)N1c1ccc2ccccc2c1
nt | 2% | -2% | 0.7% | O=C(Cc1ccc(NC2=NC3CS(=O)(=O)CC3S2)cc1)NCCc1ccccc1 (stereo unspecified)
2 | -8% | 0% | -0.2% | CCCOc1ccc(CSC(CC(=O)O)C(=O)O)cc1 (stereo unspecified)
6 | 0% | -1% | -1.0% | COCCCNC(=O)CN1C(=O)/C(=C/c2ccccc2)Sc2ccccc21
nt | -11% | -4%&-2% | 0.0% | COc1ccc(NC(=O)CSc2nc3ccccc3nc2N2CCCCC2)cc1
-3 | -6% | 3% | 0.8% | C/C=C(/C)C(=O)Nc1cccc(C2=NOC3(C2)C[C@@H](C(N)=O)N(C(=O)c2ccc(OC)cc2)C3)c1 (stereo partly specified)
5 | 6% | -26% | -2.1% | COc1ccccc1N=c1oc2c(OC)cccc2cc1C(=O)NCc1ccco1
-14 | 8% | 0% | 0.4% | CC(C)(C)NC(=O)C(=O)NC(=O)c1c(F)cccc1Cl
nt | 1% | 26%&26% | -1.3% | COc1ccc(-c2cc(C)no2)cc1S(=O)(=O)N1CCN(c2cccc(C)c2)C(C)C1 (stereo unspecified)
nt | 0% | 19% | 0.6% | CC(NC(=S)NC1CCCCC1)c1ccccc1 (stereo unspecified)
nt | -6% | nt | 3.9% | O=C(CC1SC(N2CCCCC2)=NC1=O)Nc1ccc(C(=O)O)cc1 (stereo unspecified)
nt | -11% | nt | -0.5% | O=C(NCc1ccccc1Br)c1cccc2c1C(=O)c1ccc(-c3ccc(OC(F)(F)F)cc3)cc1S2(=O)=O
3 | 3% | -20% | 1.0% | COc1cc(OC)cc(C(=O)Nc2nc3ccccc3[nH]2)c1
nt | 10% | -29% | -0.1% | CC1(C(=O)N2CCN(Cc3ccccc3Cl)CC2)CC1(Cl)Cl (stereo unspecified)
-8 | 10% | -7% | -0.5% | CC1=CC(C)(C)N=C(NC#N)N1
-13 | 6% | -3% | -0.1% | Clc1ccccc1Nc1nnc(-c2ccncc2)s1
0 | 14% | -23% | -2.9% | O=C(Cc1ccccc1Cl)Nc1nc2ccccc2[nH]1
-5 | 0% | -5% | -3.4% | COc1ccc(CC(=O)OCc2cc3ccccc3[nH]c2=O)cc1
nt | 1% | ? | -0.7% | Cc1ccc(CN2C(=O)c3ccccc3Sc3ccc(C(=O)NCCCN4CCOCC4)cc32)cc1
1 | -14% | -1% | -1.1% | COC(=O)CCC(=O)N1CCCC(CO)(Cc2ccccc2C)C1 (stereo unspecified)
nt | -15% | -1% | -2.7% | CN(C)CCCNC(=O)c1cc(C(=O)c2cccc(Cl)c2Cl)c[nH]1
4 | 12% | -6% | 3.6% | O=C(N/N=C/c1ccc[nH]1)c1ccccc1OCc1ccc(F)cc1
4 | 5% | -23% | 1.8% | O=C(CSc1nnc(NC(=O)c2ccccc2F)s1)Nc1ccccc1F
-3 | 5% | -32% | -1.5% | c1ccc(-c2noc(COc3ccc4c(c3)OCO4)n2)cc1
-25 | ? | -4% | ? | CCCN1C2=C(C(=O)CCC2)C(c2ccc(O)c(Br)c2)C2=C1CCCC2=O
-18 | 31% | -22% | 0.1% | CC(=O)c1ccc(N/N=C2/CCCNC2=O)cc1
nt | 9% | 2% | -1.5% | N#Cc1cccc(NC(=O)c2cncn2-c2ccccc2)c1

One compound at a time, from the list above. Order of values: GLA inh pH 4.5 | Rango dissoc inh | miR-21 reporter | Rango-impB inh
CCOC(=O)c1[nH]c2ccc(OC)cc2c1NC(=S)N1CCN(c2ccccc2OC)CC1 across the screens: 7 | -19% | 19% | -2.7%
NC(=O)CC(NC(=O)Cc1ccc(Br)cc1)c1ccc(NC2CCCCCCC2)c([N+](=O)[O-])c1 (stereo unspecified) across the screens: nt | 12% | nt | 6.4%
Cc1ccc(S(=O)(=O)N2CCN(C(=O)CSc3ccccn3)CC2)c(C)c1 across the screens: nt | ? | nt | ?
COc1ccc(NC(=O)CSc2nnc(C3CCCCC3)o2)c(OC)c1 across the screens: 6 | -3% | -7% | -6.4%
Cc1cc(C)n(-c2nc(N(c3ccccc3)c3ccccc3)nc(-n3nc(C)cc3C)n2)n1 across the screens: 2 | -2% | -4% | -0.8%

In the list so far, these have a furan ring, fused or not.
GLA inh pH 4.5 | Rango dissoc inh | miR-21 reporter | Rango-impB inh | Compound
-10 | 0% | -9% | 0.3% | COc1ccc(CN(C(=O)c2oc3ccccc3c2C)C2CCS(=O)(=O)C2)cc1 (stereo unspecified)
5 | 6% | -26% | -2.1% | COc1ccccc1N=c1oc2c(OC)cccc2cc1C(=O)NCc1ccco1

These rows are one share of the data, so the mix of outcomes need not match the whole.
